# RanGTP-Imp inh: inhibitors of RanGTP-importin-beta interaction, primary screen, biochemical, FRET, CFP-Ran, YFP-importin-beta, homogeneous; AID 2216; inhibition, % (test concentration not listed); cell-free CFP-Ran/YFP-importin-beta FRET ratio; actives 1.1% (n = 300,000);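 active means most replicates above 15%; inconclusive means exactly half above 15%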;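 further: 0% = DMSO wells and 100% = Ran loaded with GDP instead of GTP; wells of about 40 µL received 100 nL stock; the first replicate is given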
# Calb FLC: affects C. albicans growth with fluconazole; C. albicans CaCi-2 (fluconazole-resistant clinical isolate) + fluconazole, Alamar Blue growth, 48 h; growth inhibition, % (no concentration beside the values); actives 0.57% (n = 300,000); AID 1979;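 active means most replicates above 75%; inconclusive means exactly half above 75%; inactive means most below 75%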;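 further: all wells also contain fluconazole at 8 µg/ml as a sub-toxic cotreatment; 0% = median of DMSO wells and 100% = median of geldanamycin control wells; wells of about 8 µL received 7.5 nL stock; the first replicate is given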
# MLL AF4-AF9 inh: inhibitors of human MLL-AF4/AF9 interaction | P42568 | inhibition, % at 10 µM | actives 0.47% (n = 350,000) | AID 651704 | AlphaScreen, biotin-AF4 peptide binding to FLAG-AF9;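 active means every replicate reaching a set inhibition limit, whatever the replicate mean, cut at about 25% in these data; inconclusive means mean inhibition reaches that limit but some replicates miss it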;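 further: 0% = plate neutral control median and 100% = total signal loss; the record names both 10 and 1 µM as test concentration; the first replicate is given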
# Target sequence (P42568 whole entry, looked up): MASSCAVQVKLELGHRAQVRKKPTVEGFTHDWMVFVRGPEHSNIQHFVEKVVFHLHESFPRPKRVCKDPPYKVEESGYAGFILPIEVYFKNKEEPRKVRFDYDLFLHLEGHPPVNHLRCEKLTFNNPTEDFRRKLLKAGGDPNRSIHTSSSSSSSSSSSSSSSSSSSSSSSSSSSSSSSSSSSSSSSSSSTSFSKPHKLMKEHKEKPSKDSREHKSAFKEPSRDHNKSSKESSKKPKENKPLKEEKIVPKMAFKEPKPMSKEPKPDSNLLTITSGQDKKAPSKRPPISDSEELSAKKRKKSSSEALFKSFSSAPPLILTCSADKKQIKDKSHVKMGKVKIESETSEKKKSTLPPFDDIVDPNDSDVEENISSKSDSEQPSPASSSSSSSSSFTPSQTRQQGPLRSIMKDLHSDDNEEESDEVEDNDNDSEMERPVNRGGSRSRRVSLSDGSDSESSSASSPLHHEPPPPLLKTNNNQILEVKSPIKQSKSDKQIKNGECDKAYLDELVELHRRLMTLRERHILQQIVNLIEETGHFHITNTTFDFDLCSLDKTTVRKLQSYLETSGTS
# Ecoli rRNA inh: inhibits bacterial ribosomal RNA function over humanized ribosomes. AID 720706. actives 1.6% (n = 350,000). E. coli WT GFP vs humanized-ribosome RFP mutants, fluorescence, 24 h; stronger effect = lower value; DMSO median 0, no signal -100. GFP signal change (wild-type ribosome), % (test concentration not listed);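 active means significant combined selectivity score with lowered wild-type GFP, culture density cut under 30%, mutant RFP and density less affected; inactive means any of these conditions unmet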; further: one replicate is shown; some compounds called inactive have numbers as strong as hits
# ALR inh: blocks human ALR sulfhydryl oxidase activity. P55789. purified ALR, DTT oxidation, H2O2 HRP-luminol luminescence. inhibition, % (concentration not given with the values). actives 3.8% (n = 290,000). AID 485317;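 active means mean and each replicate at 75% or more; inconclusive means only one of the two met; inactive means neither met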;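 further: stock transfer was 7.5 nL into about 7.5 µL; 0% = neutral wells and 100% = wells with inactivated enzyme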
# Target sequence (P55789 whole entry, looked up): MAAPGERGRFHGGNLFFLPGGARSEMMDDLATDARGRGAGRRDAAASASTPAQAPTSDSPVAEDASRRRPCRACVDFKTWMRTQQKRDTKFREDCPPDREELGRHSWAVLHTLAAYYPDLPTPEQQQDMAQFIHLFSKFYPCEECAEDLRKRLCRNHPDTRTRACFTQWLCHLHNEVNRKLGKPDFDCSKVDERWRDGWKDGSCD
# FGF22 binding: shifts melting point of recombinant human FGF22; Q9HCT0; recombinant FGF22 thermal shift, SYPRO orange fluorescence; percent of sucrose octasulfate shift, DMSO zero; calls only at 9.99 µM; actives 1.5% (n = 340,000);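 active means melting point raised past a set limit in the mean and every replicate; inconclusive means no clear call; three in four hits are not shown here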
# Target sequence (Q9HCT0 whole entry, looked up): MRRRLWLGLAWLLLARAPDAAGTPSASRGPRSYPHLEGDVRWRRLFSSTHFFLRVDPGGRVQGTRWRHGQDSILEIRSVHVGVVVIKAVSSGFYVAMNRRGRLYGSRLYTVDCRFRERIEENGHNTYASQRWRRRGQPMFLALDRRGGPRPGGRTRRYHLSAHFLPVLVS
# T cruzi inh: blocks replication of Trypanosoma cruzi | T. cruzi beta-gal in NIH3T3, luminescence, 90 h | inhibition, % (test concentration not listed) | actives 1.4% (n = 300,000) | AID 1885;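 active means mean inhibition across valid replicates above about 55%, limit read from the data; inconclusive means mean below that limit but half or more replicates reach it; inactive means mean below it, under half of replicates reach it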;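 further: signal also drops with host cell toxicity which is not excluded here; 0% = plate median of DMSO wells and 100% = zero luminescence signal; higher percent means less beta-gal luminescence so fewer parasites; stock transfer was 50 nL into about 50 µL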
# Beta apoptosis: beta cell apoptosis inhibition; actives 0.8% (n = 300,000); AID 435005; INS-1E cytokine-induced death, ATP luminescence, 48 h; percent of positive-control rescue, neutral wells zero; protection from apoptosis, % (test concentration not listed);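 active means all replicates at 75% or more, or half of them and the mean; inconclusive means half reach 75% but not the mean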;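 further: 0% = cytokine-treated negative control wells and 100% = positive control rescue; higher means more ATP so stronger rescue from cytokine killing; wells of about 40 µL received 100 nL stock; the first replicate is given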
# Ecoli rRNA inh OD600: second read-out of Ecoli rRNA inh, no call of its own (marks repeat the call); OD600 change, %; measured here: OD600 growth;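 optical density of the mix in the first replicate; 0 = DMSO median and -100 = no signal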
# Ecoli rRNA inh RFP: second read-out of Ecoli rRNA inh, no call of its own (marks repeat the call); RFP signal change, %; measured here: RFP humanized mutant strains;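 first replicate; 0 = DMSO median and -100 = no signal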
# The depositor's hits bear a star; i = inactive; ? = inconclusive; . = no result given.
# Each structure is followed by: RanGTP-Imp inh	Calb FLC	MLL AF4-AF9 inh	Ecoli rRNA inh	Ecoli rRNA inh OD600	Ecoli rRNA inh RFP	ALR inh	FGF22 binding	T cruzi inh	Beta apoptosis
- Cc1cc2cc(CNC(=O)c3ccc(S(=O)(=O)N4CCCCC4)cc3)ccc2n1C
    -1.2	-1	-0.1	3	0	8.0	.	i	40	-4
- C=CCn1c(SCC(=O)N2CCCC2=O)nc2sc(CC)cc2c1=O
    .	.	-5.1	-23*	-11*	0.2*	2	i	.	3
- Cc1cccc(NC(=O)CCSc2ccccc2)c1C
    ?	-17	-1.2	7	1	1.4	-3	i	-15	3
- N#C/C(=C\c1cc([N+](=O)[O-])c(N2CCOCC2)cc1N1CCOCC1)c1nc2ccccc2[nH]1
    4.6	-6	.	.	.	.	4	.	22	15
- Nc1ccccc1Nc1cc(-c2cccc(Cl)c2)nn1-c1ccccc1
    -11	-18	.	.	.	.	1	.	57*	4
- O=C(C1=C[C@@H](c2ccc(Br)cc2)C[C@@H](OCc2ccc(CO)cc2)O1)N1CCN(Cc2ccccc2)CC1
    2.9	-11	5.3	.	.	.	-8	i	53	57
- COc1ccc(-c2oc(=O)c3cc(OC)c(OC)cc3c2-c2ccc3c(c2)OCO3)cc1
    .	.	4.4	22	15	-0.6	-1	i	.	2
- Cc1ccc(-c2csc(NC(=O)Cn3[nH]c(=O)c4ccccc4c3=O)n2)cc1
    -0.4	-17	-3.9	-3	-4	6.7	-9	i	11	-4
- Cc1ccc(CN(C)C(=O)c2cc(COc3ccc(F)cc3Cl)on2)o1
    0.7	-37	-1.8	-46	-70	-9.5	47	i	7	-6
- Cc1cc(C)c(C(=O)C[n+]2cccc(C(N)=O)c2)c(C)c1
    -0.4	-2	1.5	13	6	7.7	31	i	5	-8
- Cc1ccc(N(CC(=O)NCc2ccc(F)cc2)C(=O)c2csnn2)c(C)c1
    -2.1	-5	-1.0	-9	-13	-0.7	49	i	-7	4
- CS(=O)(=O)c1ccc(C(=O)NC2CCCc3ccccc32)cc1 (stereo not drawn)
    1.6	?	.	.	.	.	-9	.	-13	-3
- COc1ccc2cc(S(=O)(=O)N3CCCCCC3)ccc2c1
    5.6	7	-1.5	-33	-47	-3.5	-42	i	-11	-3
- CCCn1cc(NC(=O)c2cc3n(n2)C(C(F)(F)F)CC(c2ccccc2)N3)cn1 (stereo not drawn)
    -4.3	-5	.	.	.	.	-5	.	-13	7
- CCCC[C@@H]1C[C@H]1[C@@H](NC(=O)c1cccs1)c1ccc(Cl)cc1
    -5.1	14	.	.	.	.	-3	.	43	58
- Cc1onc(-c2c(F)cccc2Cl)c1C(=O)N1CCc2ccccc2C1
    -0.6	-16	.	.	.	.	3	.	3	-2
- CC(C)(C)C(=O)Nc1ccccc1C(=O)Nc1cccnc1
    2.9	.	.	.	.	.	-3	.	-2	-5
- Cc1cc(OCC(O)CN2CCc3ccccc3C2)ccc1Cl (stereo not drawn)
    -9.6	-6	-2.4	-56	-77	-20	.	i	-2	0
- COc1ccc(C(=O)C(C)OC(=O)c2cccc(S(=O)(=O)Nc3cc(Cl)c(OC)cc3OC)c2)cc1 (stereo not drawn)
    2.0	15	.	.	.	.	-2	.	-6	9
- CC(C)Sc1nc2ccccc2n1CC(N)=O
    7.5	-11	.	.	.	.	.	.	-4	-5
- COc1ccccc1N1C(=O)CC(Sc2nccc(C)n2)C1=O (stereo not drawn)
    -1.0	8	.	.	.	.	-16	.	10	-6
- COc1ccc(CCNC(=O)CCc2ccccc2)cc1OC
    2.3	-1	0.9	6	-1	-0.5	-6	i	-3	.
- CC1CCC2(CC1)Nc1ccccc1C(=O)N2c1ccccc1 (stereo not drawn)
    2.0	4	.	.	.	.	-2	.	-5	-7
- COc1ccc(C(=O)NCCCOC(=O)c2ccc(OC)cc2)cc1
    2.1	-3	-2.3	-9	-16	0.6	-2	i	5	-9
- COCCn1c(N)c(N(Cc2ccccc2)C(=O)CN2C(=O)NC(C)(c3ccccc3)C2=O)c(=O)[nH]c1=O (stereo not drawn)
    -2.4	-6	-6.8	2	10	-4.3	-3	i	-19	-6
- COc1ccccc1C1c2[nH]c3ccccc3c2CCN1Cc1cnc(C)s1 (stereo not drawn)
    -0.7	-13	3.2	5	-6	3.2	.	i	12	.
- O=C(NCc1ccc(F)cc1)C1(c2cccs2)CCOCC1
    0.2	5	-40	2	-11	-1.8	3	i	-16	4
- COc1ccc(CC(NC(C)=O)C(=O)NC2CCN(C(=O)Nc3ccc(Cl)cc3)CC2)cc1OC (stereo not drawn)
    -0.6	-11	.	.	.	.	-4	.	-3	-1
- O=C(Cc1ccccc1)Nc1nnc(-c2cccs2)s1
    -3.5	-1	.	.	.	.	-6	.	5	-3
- Cc1ccc(C(=O)N/N=C2\SCC(=O)N2c2cc(C)ccc2C)cc1
    1.4	-6	.	.	.	.	-3	.	-9	-1
- Cc1ccc(C)c(-n2c(-c3ccc(Br)cc3)csc2=NC(=O)c2ccccc2F)c1
    ?	.	3.6	16	16	-1.1	-5	i	64*	12
- Cc1ccc(-c2csc3ncnc(OCC(=O)NC(=O)NCc4ccco4)c23)cc1
    -3.2	13	9.3	-29*	-17*	0.2*	2	i	-22	-1
- O=S(=O)(O/N=C1\CCCc2ccccc21)c1ccccc1
    0.7	-1	.	.	.	.	-1	.	-10	-2
- COc1ccc(C(=O)c2c(-c3ccc(OC)cc3)oc3ccc(-c4cc(OC)c(OC)c(OC)c4)cc23)cc1
    -0.9	3	-9.6	5	0	2.3	-12	i	40	1
- COc1ccc(N(CC(=O)Nc2ccc3c(c2)OCCO3)S(=O)(=O)c2c(C)nn(C)c2C)cc1
    -0.7	-5	-2.3	2	3	1.2	-34	i	-18	-4
- Cc1nc2ccccc2n1C(=O)c1cc(-c2ccc(Br)cc2)nc2ccccc12
    2.1	1	.	.	.	.	0	.	8	-6
- COC(=O)C(C)Sc1nc2c(cnn2-c2ccccc2)c(=O)[nH]1 (stereo not drawn)
    1.8	15	1.2	-2	3	-10	-8	i	-6	4
- Cc1ccc(/C=[N+](/[O-])C2SC(=S)N(C)C2(C)C)cc1 (stereo not drawn)
    ?	3	.	.	.	.	-4	.	1	-4
- COc1ccc(OCc2cc(C(=O)NC(C)Cn3cncn3)no2)c(Cl)c1 (stereo not drawn)
    -0.6	11	-3.3	-5	-14	4.0	7	i	-13	-8
- Cc1ccc(C2CC2C(=O)NN)cc1 (stereo not drawn)
    -2.7	-5	.	.	.	.	.	.	0	-2
- CCN(CC)C(=S)Oc1ccc(Cl)cc1Cl
    1.4	6	-1.6	3	-9	-1.8	-5	i	-1	1
- Cc1nn(CCCC(=O)NCc2ccccc2)c(=O)c2nn(-c3ccccc3)c(C)c12
    -4.3	0	0.4	10	2	-2.8	-7	i	7	-4
- Cc1nc(SCC(=O)NCc2ccco2)c2c(C)c(C)sc2n1
    -1.8	0	.	.	.	.	.	.	-6	-5
- CSc1ccc(C(=S)N2CCCCCC2)cc1
    1.8	-3	3.0	-9	-5	-2.5	-2	i	-5	.
- CCC(=O)NC(c1cc(Cl)c2cccnc2c1O)C1CC1 (stereo not drawn)
    .	.	-3.5	3	-7	-17	6	i	.	103*

# A different layout for some results above:
Compound,RanGTP-Imp inh,Calb FLC,MLL AF4-AF9 inh,Ecoli rRNA inh,Ecoli rRNA inh OD600,Ecoli rRNA inh RFP,ALR inh,FGF22 binding,T cruzi inh,Beta apoptosis
CSc1ccc(C(=S)N2CCCCCC2)cc1,1.8,-3,3.0,-9,-5,-2.5,-2,i,-5,.
CCC(=O)NC(c1cc(Cl)c2cccnc2c1O)C1CC1 (stereo not drawn),.,.,-3.5,3,-7,-17,6,i,.,103*

# Compound profiles, as listed above. Order of screens: RanGTP-Imp inh	Calb FLC	MLL AF4-AF9 inh	Ecoli rRNA inh	Ecoli rRNA inh OD600	Ecoli rRNA inh RFP	ALR inh	FGF22 binding	T cruzi inh	Beta apoptosis
# CSc1ccc(C(=S)N2CCCCCC2)cc1 in the list: 1.8	-3	3.0	-9	-5	-2.5	-2	i	-5	.
# Cc1ccc(/C=[N+](/[O-])C2SC(=S)N(C)C2(C)C)cc1 (stereo not drawn) in the list: ?	3	.	.	.	.	-4	.	1	-4
# Cc1ccc(C2CC2C(=O)NN)cc1 (stereo not drawn) in the list: -2.7	-5	.	.	.	.	.	.	0	-2
# Cc1ccc(-c2csc3ncnc(OCC(=O)NC(=O)NCc4ccco4)c23)cc1 in the list: -3.2	13	9.3	-29*	-17*	0.2*	2	i	-22	-1
# O=S(=O)(O/N=C1\CCCc2ccccc21)c1ccccc1 in the list: 0.7	-1	.	.	.	.	-1	.	-10	-2

# Following part
# Each structure is followed by: RanGTP-Imp inh	Calb FLC	MLL AF4-AF9 inh	Ecoli rRNA inh	Ecoli rRNA inh OD600	Ecoli rRNA inh RFP	ALR inh	FGF22 binding	T cruzi inh	Beta apoptosis
- CCc1nnc(NC(=O)CC23CC4CC(CC(Br)(C4)C2)C3)s1
    -0.5	-1	-0.5	7	12	1.1	4	i	0	-6
- Nc1cc(N)nc(SCc2ccccc2)n1
    3.9	?	.	.	.	.	-1	.	-21	.
- O=S(=O)(c1ccccc1)N1CCC2(CC1)CO2
    -2.5	-3	-1.0	7	12	1.3	-1	i	1	-4
- COc1ccccc1NC(=O)Nn1cnnc1
    2.6	16	.	.	.	.	-6	.	-14	-2
- Cc1ccc(NC(=O)NCC2CCN(Cc3cccc(Cl)c3)CC2)cc1Cl
    4.0	-5	-13	7	5	-3.4	.	i	62*	120*
- CCOC(=O)c1[nH]c2ccc(Br)cc2c1NC(=O)CCN1CCC(C(=O)OCC)CC1
    5.8	2	.	.	.	.	-5	.	0	3
- CCOC(=O)c1sc(NC(=O)CSc2nc3c(c(-c4ccc(OC)cc4)c2C#N)CCCC3)c(C#N)c1C
    4.2	4	.	.	.	.	-2	.	1	.
- c1ccc(C2=NNC(c3ccco3)=Nc3ccccc32)cc1
    0.0	-4	14	3	2	4.6	.	i	23	-2
- O=C(Nc1ccc(N2CCOCC2)c(Cl)c1)c1cccc(-n2cnnc2)c1
    -2.6	0	1.1	-10	-5	-3.2	-12	i	-8	-5
- CC1CCCCN1CC(O)COCc1ccccc1 (stereo not drawn)
    -0.8	7	2.4	6	12	0.9	-10	i	-8	0
- Cc1onc(-c2ccccc2)c1C(=O)NC(=S)NNC(=O)c1ccc(O)cc1
    -0.5	4	.	.	.	.	51	.	-3	23

# Not all compounds are listed; rates above refer to the full screens.
